# Compound activity deposited in PubChem BioAssay by Johns Hopkins Ion Channel Center.
# KCNQ2 block: KCNQ2 channel blockers in CHO-K1 cells – cell-based, FluxOR thallium flux, B-score, primary screen (AID 2156); hit rate 1.1% among 310,000; 20 min; hits give low values; only compounds with negative scores are shown here; some inactives read as strong as hits; O88943; B-score at 10 µM;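 active = fluorescence ratio B-score at most minus 3 library SDs, with starting brightness B-score within 2 library SDs, cut at about -5.5 in these data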
# Target sequence (O88943 whole entry, looked up): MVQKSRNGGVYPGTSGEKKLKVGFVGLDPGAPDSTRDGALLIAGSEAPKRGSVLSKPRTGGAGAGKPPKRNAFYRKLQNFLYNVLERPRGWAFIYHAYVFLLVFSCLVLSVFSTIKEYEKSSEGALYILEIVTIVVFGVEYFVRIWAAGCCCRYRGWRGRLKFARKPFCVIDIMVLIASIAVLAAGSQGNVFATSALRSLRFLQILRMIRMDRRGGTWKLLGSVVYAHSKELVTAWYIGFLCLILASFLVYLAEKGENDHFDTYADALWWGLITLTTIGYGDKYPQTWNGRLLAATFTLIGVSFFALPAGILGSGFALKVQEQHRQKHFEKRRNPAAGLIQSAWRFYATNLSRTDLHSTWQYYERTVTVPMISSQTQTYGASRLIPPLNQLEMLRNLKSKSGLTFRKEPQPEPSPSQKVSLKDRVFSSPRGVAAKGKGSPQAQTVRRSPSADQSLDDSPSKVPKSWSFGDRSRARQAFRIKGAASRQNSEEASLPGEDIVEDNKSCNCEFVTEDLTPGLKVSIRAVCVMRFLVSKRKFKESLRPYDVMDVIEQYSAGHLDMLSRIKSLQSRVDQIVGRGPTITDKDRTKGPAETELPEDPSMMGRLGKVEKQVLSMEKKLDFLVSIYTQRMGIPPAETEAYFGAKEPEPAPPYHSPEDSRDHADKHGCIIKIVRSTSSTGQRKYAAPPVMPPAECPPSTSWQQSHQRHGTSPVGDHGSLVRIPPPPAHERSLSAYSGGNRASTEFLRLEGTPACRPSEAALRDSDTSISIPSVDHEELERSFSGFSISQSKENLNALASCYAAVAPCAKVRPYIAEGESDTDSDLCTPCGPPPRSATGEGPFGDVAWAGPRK
# KCNQ2 block baseline: further read-out of KCNQ2 block, marked with its call; B-score; measured here: initial fluorescence intensity artifact check;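 brightness before thallium and not channel activity; 0 = typical well and far values either way flag optical interference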
# * = called active by the depositor; i = inactive. Only part of the results is shown; the hit share may differ from the screen's.
item	SMILES	KCNQ2 block	KCNQ2 block baseline
1	CC(C)CCCN1C(Nc2ccccc2)=NC[C@@H]1Cc1ccccc1	i	-1.37
2	CCOC(=O)Cn1nnnc1C	i	2.51
3	O=C(CSc1ncn[nH]1)N1CCCCC1	i	-0.3
4	CCCCOC(=O)c1cc(-c2ccc(/C=N/n3cnnc3)o2)ccc1Cl	i	0.94
5	CC(C)c1ccc(/C=C/C(=O)N2CCc3ccccc3C2)cc1	i	1.02
6	COc1cc(NS(=O)(=O)c2ccc(F)cc2)c(OC)cc1NC(=O)C1CC1	i	-0.02
7	COCCOC(=O)C1=C(C)NC(=O)NC1c1c(Cl)nc2ccccn2c1=O (stereo not given)	i	0.3
8	COc1ccccc1C(=O)Nc1nnc(S(=O)(=O)N(C)Cc2ccccc2)s1	i	-0.6
9	CCOC(=O)/C(C#N)=C/c1ccc(OCC(=O)Nc2cc(C)ccc2C)c(OC)c1	i	1.05
10	COC(=O)Cn1c(=NC(=O)c2cc(-c3cccs3)nc3ccccc23)sc2cc(S(N)(=O)=O)ccc21	i	1.86
11	COc1cc(SC)ccc1C(=O)N1CCCc2ccccc21	i	-1.19
12	COc1nc2c(c(-c3cc(Br)cs3)c1C#N)Cc1ccccc1-2	i	0.26
13	CN(C)CCOc1ccc2ccccc2c1	i	1.35
14	N#Cc1nc(-c2ccc(OCc3ccccc3)cc2)oc1NCc1ccco1	i	1.77
15	CCOC(=O)C1=C(C)NC2=C(C(=O)CC(C)(C)C2)C1c1ccc(O)c(OCC)c1 (stereo not given)	i	0.79
16	COc1ccc2c(c1)C(C)=CC(C)(C)N2C(=O)CNCc1ccc2c(c1)OCO2	i	-2.13
17	O=C(Cn1nc(C(=O)O)c2ccccc2c1=O)NC12CC3CC(CC(C3)C1)C2	i	0.94
18	Cc1ccc2c(c1)Oc1ccc([N+](=O)[O-])cc1C(=O)N2	i	-0.14
19	CC(=O)c1cccc(NC(=O)C(C)OC(=O)C2CCC2)c1 (stereo not given)	i	0.2
20	CCOc1ccc(S(=O)(=O)N(C)c2ccc(OCC(=O)OCc3c(C)noc3C)cc2)cc1	i	1.64
21	CCCCn1c(N)c(N(CCOC)C(=O)c2cc3c(s2)CCC3)c(=O)[nH]c1=O	i	-0.61
22	O=C(O)c1ccc(NC(=O)c2cccc(C(=O)Nc3ccc(C(=O)O)cc3)n2)cc1	i	0.01
23	COc1ccc(-n2nc(C(=O)O)cc2-c2ccccc2)cc1	i	1.28
24	COc1ccccc1OCCNC(=O)c1cc(SC)ccc1Cl	i	1.53
25	Cc1ccccc1Sc1ccc([N+](=O)[O-])cn1	i	0.64
26	CC(C)c1ccc(/C=C/C(=O)Nc2nc3ccc([N+](=O)[O-])cc3s2)cc1	i	-0.04
27	CC(=O)Nc1ccc(NC(=O)C/C(C)=N/NC(N)=S)cc1	i	0.24
28	CCOc1ccccc1-c1cc(-c2ccc(OC)cc2)nc2c1c(=O)n(C)c(=O)n2C	i	-2.35
29	CCCc1cc(=O)[nH]c(NCc2ccc(Cl)cc2)n1	i	0.91
30	Cc1ccc(CCNC(=O)c2cc(C)nn2-c2ccccc2)cc1	i	0.58
31	COc1ccc(OC)c2c(N)c(C#N)c(C(F)(F)C(F)(F)F)nc12	i	-0.88
32	Cc1ccc(C(=O)OCC(=O)NCCc2ccccc2)cc1S(=O)(=O)N1CCOCC1	i	-0.68
33	O=C(O)CC1(CC(=O)N2CCN(CCO)CC2)CCCC1	i	0.64
34	CCc1sc(N(C(=O)Cc2ccccc2)c2ccccc2)nc1-c1ccccc1	i	0.01
35	OC(CN1CCN(Cc2ccccc2)CC1)c1ccccc1 (stereo not given)	i	-0.39
36	Fc1ccc(CN2CCSCC2)cc1Br	i	0.01

# Part of the list above in order of formula weight, smallest number first.
item	SMILES	KCNQ2 block	KCNQ2 block baseline
25	Cc1ccccc1Sc1ccc([N+](=O)[O-])cn1	i	0.64
18	Cc1ccc2c(c1)Oc1ccc([N+](=O)[O-])cc1C(=O)N2	i	-0.14
23	COc1ccc(-n2nc(C(=O)O)cc2-c2ccccc2)cc1	i	1.28
33	O=C(O)CC1(CC(=O)N2CCN(CCO)CC2)CCCC1	i	0.64
31	COc1ccc(OC)c2c(N)c(C#N)c(C(F)(F)C(F)(F)F)nc12	i	-0.88
26	CC(C)c1ccc(/C=C/C(=O)Nc2nc3ccc([N+](=O)[O-])cc3s2)cc1	i	-0.04
17	O=C(Cn1nc(C(=O)O)c2ccccc2c1=O)NC12CC3CC(CC(C3)C1)C2	i	0.94

# The main list resumes, starting 2 compounds before the break.
item	SMILES	KCNQ2 block	KCNQ2 block baseline
35	OC(CN1CCN(Cc2ccccc2)CC1)c1ccccc1 (stereo not given)	i	-0.39
36	Fc1ccc(CN2CCSCC2)cc1Br	i	0.01
37	COc1cccc(C2C(C(=O)c3cccs3)=C(O)C(=O)N2CCN(C)C)c1OC (stereo not given)	i	1.24
38	c1ccc(OCCn2cnc3ccccc32)cc1	i	-0.29
39	Cc1cc(C)c2c(N)c(S(=O)c3ccc(C(C)(C)C)cc3)sc2n1 (stereo not given)	i	0.94
40	Cc1cccc(-c2nc(CSCC(=O)NCc3cccs3)c(C)o2)c1	i	-0.12
41	N#Cc1ccc(/C=C/C(=O)c2ccccc2)cc1	i	-0.34
42	O=c1cc(CN2CCN(S(=O)(=O)/C=C/c3ccccc3)CC2)c2ccc(O)cc2o1	i	1.47
43	COc1ccc(C(=O)N(c2ccc(OC)cc2)S(=O)(=O)c2cccs2)cc1	i	-0.76
44	COc1cccc(CNn2cnnc2)c1O	-5.64*	-1.85*
45	NNC(=O)c1nc(Cl)c(Cl)c(N)c1Cl	i	0.24
46	Cc1nc(CNS(=O)(=O)c2ccc3c(c2)CCCC3)cs1	i	-0.56
47	CCOC(=O)c1sc(NC(=O)CSc2nc3c(c(=O)n2-c2ccc(C)cc2)SCC3)c(C(=O)OCC)c1C	i	-0.26
48	COc1ccc(C)cc1C(=O)CCC(=O)NC1CCCCC1	i	0.31
49	O=S(=O)(c1cccs1)n1nnc2ccccc21	i	2.01
50	CN(C)c1ccc(/C=C/C(=O)c2ccc3c(c2)OCCO3)cc1[N+](=O)[O-]	i	-0.22
51	CCCNc1c(NC(C)=O)c(=O)oc2ccccc12	i	-1.59
52	Cc1csc(=O)n1CC(=O)OCC(=O)NCc1ccc(F)cc1	i	-0.4
53	CC1=C(CC(=O)NCC(=O)NCC(=O)O)c2cc(F)ccc2/C1=C/c1ccc(S(C)=O)cc1 (stereo not given)	i	-0.28
54	Cc1ccc(-c2csc(C(C#N)=C3CCCC3)n2)cc1	i	1.81
55	COc1cc(/C=C2\SC(N)=NC2=O)cc(Br)c1O	i	4.21
56	CC(C)Cc1nc2sc3c(=O)[nH]cnc3c2c2c1CCC2	i	0.15
57	COc1ccc(/C=C/C(=O)Nc2cc(C(F)(F)F)ccc2Cl)cc1OC	i	-0.15
58	CSc1nc(N2CCOCC2)cc(N2CCOCC2)n1	i	-0.81
59	O=c1c2ccccc2cnn1Cc1n[nH]c(=S)n1-c1ccccc1F	i	0.67
60	CCOC(=O)C1C(=O)NC(c2ccccc2)=NC1c1ccc(C(C)C)cc1 (stereo not given)	i	-0.19
61	CCOC(=O)N1CCC(NC(=O)c2cccnc2SC)CC1	i	0.02
62	Cc1ccc2nc(C(=O)N3CCc4c([nH]c5ccccc45)C3c3ccccn3)cn2c1 (stereo not given)	i	-0.13
63	CC(=O)N1c2ccc(S(=O)(=O)NCCc3ccccc3)cc2CC1C (stereo not given)	i	0.05
64	COc1cccc(N2C(=O)C3CCCN3C2c2ccc(F)cc2)c1 (stereo not given)	i	0.68
65	COc1cccc(-n2nnnc2SCC(=O)NCc2ccco2)c1	i	-1
66	CCN(CC)S(=O)(=O)c1ccc(NCc2ccccn2)nc1	i	-0.55
67	O=C(CSc1ncccc1C(=O)O)NC1CCCCCCC1	i	-1.12
68	COc1cccc(CN2CCN(C(=S)NCc3ccc(Cl)cc3)CC2)c1	i	-0.36
69	CCOC(=O)C(=CNc1ccc2c(c1)c1ccccc1n2CC)C(=O)OCC	i	0.16
70	CSc1ccc(S(=O)(=O)NCCCn2ccnc2)cc1	i	2.82
71	COC(=O)c1cc(Oc2ccc(C(=O)OC)cc2N)cc(C(=O)OC)c1	i	-0.54
72	O=C(OCc1ccc([N+](=O)[O-])cc1)C1CCN(S(=O)(=O)c2ccccc2)CC1	i	-1.79
73	CCN(CC(=O)Nc1cc(Cl)ccc1C)C(=O)COc1ccccc1F	i	1.53
74	CCOC(=O)C1CCCN(c2ncnc3c2cnn3-c2ccc(Cl)cc2)C1 (stereo not given)	i	-0.21
75	Cn1c(=O)c2[nH]c(-c3ccccc3)c(O)c2n(C)c1=O	i	26.4
76	CCN(CC)CCNC(=S)Nc1ccc2nc(N3CCCC3)cc(C)c2c1	i	0.23
77	CC(=O)C1=C(O)C(=O)N(c2ccc(O)cc2)C1c1ccc(Cl)cc1 (stereo not given)	i	-0.05
78	Fc1cnc(N2CCN(c3ccccc3)CC2)nc1N1CCN(c2ccccc2)CC1	i	1.29
79	Cc1ccc(-c2cc(C(=O)NCc3cn(C)nc3C)c3cc(Br)ccc3n2)cc1	i	0.01
80	Cc1cc(N2CCC(C(=O)NC3CC3)CC2)nc(-c2ccccc2)n1	i	-1.09
81	CCOC(=O)C1CCN(C(=O)CCc2ccccc2)CC1	i	0.48
82	O=c1[nH]c(Cc2ccccn2)nc2scc(-c3ccc(Cl)cc3)c12	i	-1.82
83	CCOc1ccc(S(=O)(=O)NCc2cccnc2)cc1C(C)C	i	0.14
84	CC(=O)Nc1ccc(NC(=O)Cc2sc(-c3cccnc3)nc2-c2ccc(C)cc2)cc1	i	-0.87
85	Cc1cc(C(=O)CCC(=O)Nc2ncccc2C)c(C)s1	i	-0.08
86	O=C(NCCc1ccccc1)C1CC(=O)N(C2CCCCC2)C1 (stereo not given)	i	0.94
87	O=C(c1cccc(-n2cnnn2)c1)N1CCOCC1	i	0.27
88	CCCNC(=O)N1CCN(C(=O)NCCC)CC1	i	-0.02
89	CCOc1ccc2nc(N3CCCC(C(=O)NCCCN4CCCCC4)C3)sc2c1 (stereo not given)	i	-0.47
90	CCn1c(/C=N/NC(=O)c2ccc(OC)cc2)nc2ccccc21	i	-0.04
91	COc1ccc(CNC(=O)C(C#N)c2nc3ccccc3nc2N2CCN(C)CC2)cc1 (stereo not given)	i	2.9
92	CCc1cccc(C)c1NC(=O)C(c1ccccc1)N1CCC1=O (stereo not given)	i	1.22
93	CCC(=O)Nc1nc2ccccc2n1CCN1CCOCC1	i	-2.34
94	Cc1nc(N2CCCCC2C)c2c(C)c(C(=O)Nc3ccccc3C(F)(F)F)sc2n1 (stereo not given)	i	0.49
95	CC(=O)c1ncnn1CC(=O)c1ccc(Cl)cc1Cl	i	-0.18
96	CN(C)CCN(Cc1cc2cc3c(cc2nc1Cl)OCO3)C(=O)c1ccco1	i	0.44

# 3 of the entries above in order of the KCNQ2 block baseline value, largest number first.
item	SMILES	KCNQ2 block	KCNQ2 block baseline
91	COc1ccc(CNC(=O)C(C#N)c2nc3ccccc3nc2N2CCN(C)CC2)cc1 (stereo not given)	i	2.9
92	CCc1cccc(C)c1NC(=O)C(c1ccccc1)N1CCC1=O (stereo not given)	i	1.22
94	Cc1nc(N2CCCCC2C)c2c(C)c(C(=O)Nc3ccccc3C(F)(F)F)sc2n1 (stereo not given)	i	0.49

# Later entries:
item	SMILES	KCNQ2 block	KCNQ2 block baseline
97	O=C(c1ccco1)N1CCN(Cc2csc(-c3ccccc3Cl)n2)CC1	i	-0.41
98	C=C(C)CC(c1ccccc1)N(C(C)=O)c1ccco1 (stereo not given)	i	0.33
99	Cc1ccc(C)c(S(=O)(=O)N2CC(=O)N(CCc3ccccc3)C(=O)C2)c1	i	-0.73
100	S=C(Nc1ccc(Br)cc1)N1CCN(C2CCCCC2)CC1	i	-0.32
101	O=C(CCc1nc(-c2ccccc2)no1)NCc1cccnc1	i	1.7
102	N#CC(c1ccc(Cl)nn1)c1c(F)cccc1Cl (stereo not given)	i	-1.15
103	c1ccc(Cc2nnc(Sc3ccccc3)c3ccccc23)cc1	i	-1.56
104	CCC(=O)N1CCN(c2ccccc2NC(=O)c2cccc(C)c2)CC1	i	-0.96
105	CCCOc1ccc(N2C(=O)CC(NCc3cccs3)C2=O)cc1 (stereo not given)	i	-0.09
106	CC(=O)c1cccc(NC(=O)N2CCCc3ccccc32)c1	i	-0.74
107	COC(=O)c1ccccc1Oc1c(F)c(F)nc(N2CCOCC2)c1F	i	1.07
108	COc1ccc2c(Cl)c(C(=O)N/N=C/c3cccnc3)sc2c1	i	-1.61
109	Cc1c(N(C)S(=O)(=O)c2cc(C(=O)N3CCCC3)ccc2Cl)c(=O)n(-c2ccccc2)n1C	i	0.19
110	O=C(NCC(c1cccnc1)N1CCN(c2ccc(F)cc2)CC1)c1cccc(Cl)c1 (stereo not given)	i	0.47
111	COc1cc(N2CCCC2)c(OC)cc1/C=C(/C#N)c1ccc(F)cc1	i	0.98
112	COCCn1c(=O)[nH]c2cc(C(=O)NCc3ccccc3)ccc2c1=O	i	-0.2
113	O/N=C1\CCCc2oc3c(c21)CCCC3	i	-0.31
114	CCOC(=O)N1CCN(Cc2c(O)ccc3ccccc23)CC1	i	-1.02
115	CCN(CC)C(=O)CSc1nc(C)cc(-c2cccs2)c1C#N	i	1.15
116	CCc1ccc(NC(=O)CCS(=O)(=O)c2ccc3c(c2)CCN3C(C)=O)cc1	i	0.13
117	O=C(NCCc1ccccc1)c1ccccc1NS(=O)(=O)N1CCCC1	i	0.49
118	CC(CN1CCCCC1)OC(=O)/C=C/c1ccccc1 (stereo not given)	i	0.05
119	CCOC(=O)C1CCCN(/C=C2\SC(=S)N(CC)C2=O)C1 (stereo not given)	i	0.64
120	O=C(NCc1ccco1)c1ccc(-c2csnn2)cc1	i	-0.35
121	CC(C)CCc1noc(CN(C)CC2CCN(Cc3ccccc3)CC2)n1	i	-0.33
122	C#Cc1ccc([C@H]2C=C(C(=O)O)O[C@@H](OCc3ccc(CO)cc3)C2)cc1	i	0.61
123	Cc1ccc2c(c1)NC(=O)C(CC(=O)N(C)Cc1ccccc1)O2 (stereo not given)	i	-0.54
